Sa ugtP lethal = growth inhibition of ugtP-null S. aureus, primary screen, RN4220 ugtP deletion, OD600; 16 h; some inactives read as strong as hits; 0.54% of 330,000 active; growth inhibition, % (no concentration beside the values); AID 1259309, 2017;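 active means z-score under -3 and OD600 up to 0.15 on both plates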;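 further: plate controls were untreated wells for no effect and antibiotic for full effect; wells of about 80 µL received 100 nL stock; the first replicate is given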
PrP UTR inh = inhibition of PrP 5' UTR reporter expression; 0.35% of 340,000 active; inhibition, % (concentration not given with the values); cell-based PrP 5' UTR mRNA reporter, plate reader;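 active means every replicate at 50% or more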;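 further: 0 = median of the neutral control wells; tested in H4 reporter cells; numbers are from one replicate; inactives centre near -14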
Mtb hypoxia rep = PubChem AID 1159583; 0.1% of 300,000 active; M. tuberculosis hypoxia-regulated fluorescent reporter, fluorescence; fluorescence inhibition, % (concentration not given with the values);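 active means 35 to 45% if threefold the growth effect, above 45% if 1.5-fold the growth effect; inactive means the rest, general growth blockers included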;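 further: wells of about 50 µL received 100 nL stock; 0% = vehicle wells and 100% = reference inhibitor wells; whole bacteria with a GFP reporter of the hypoxia response; strong numbers were not always called active; many hits fall short of the cut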
RN4220 kill = growth inhibition of S. aureus RN4220, primary screen, OD600. 16 h. inhibition, % (concentration not given with the values). 0.33% of 330,000 active;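 active means z-score of -3 or lower and OD600 up to 0.18 on both plates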;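 further: plate controls were untreated cells for no effect and reference antibiotic for full effect; stock transfer was 100 nL into about 80 µL; one replicate is shown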
BJeLR lethal = MLPCN primary cell-based screen for lethality selective to Ras in HRASV12 cells | inhibition, % (test concentration not listed) | AID 1554, 2009 | 0.17% of 300,000 active | BJeLR (HRASV12) viability, CellTiter-Glo ATP luminescence, 48 h; reference of the scale not given here;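 active means replicate mean above 50%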;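 further: 50 nL library stock added to about 25 µL; numbers are from one replicate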
Bead autofluor = counter-screen for toxin protease inhibitors: compound fluorescence. fluorescence intensity (concentration not given with the values). compound autofluorescence counterscreen, microsphere flow cytometry; hits give high values. AID 624483. 3.1% of 360,000 active;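 active means at least 3 SD above the mean of all compounds, about 16000 in these data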;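 further: 100 nL of 1 mM stock went into each well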
Mtb hypoxia rep growth = further read-out of Mtb hypoxia rep, marked with its call; growth inhibition, %; measured here: M. tuberculosis growth (absorbance);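 0% = vehicle and 100% = reference antibiotic; read after six days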
* = called active by the depositor; & = joins results of further samples.

`CC(=O)CC(O)CC(=O)C1OC(=O)CCCCCC=CCc2ccccc21` (configuration not stated) gave Sa ugtP lethal -2&7, Mtb hypoxia rep -1&3, RN4220 kill 2.9&14 and Mtb hypoxia rep growth 11&5.
`CC(C)[C@H](NC(=O)c1ccc(F)cc1)C(=O)OCC(=O)NC(=O)c1cccn1C` gave Sa ugtP lethal 4, PrP UTR inh -17, Mtb hypoxia rep 7, RN4220 kill 3.4, BJeLR lethal -2, Bead autofluor 2560 and Mtb hypoxia rep growth -1.
Screening CC1CCCC(C)N1CCCNC(=O)c1ccc2nc(N3CCOCC3)sc2c1 (configuration not stated) returned Sa ugtP lethal 8, PrP UTR inh 1, Mtb hypoxia rep -3, RN4220 kill 2.7, BJeLR lethal 0, Bead autofluor 7167 and Mtb hypoxia rep growth 4.
Screening CCOC(=O)c1cnc2ccc(OC)cc2c1NCc1ccccc1 returned Sa ugtP lethal -11, PrP UTR inh -1, Mtb hypoxia rep 2, RN4220 kill 15, BJeLR lethal 0, Bead autofluor 8870 and Mtb hypoxia rep growth 5.
`Cc1cc2c(n1-c1ccc(C(N)=O)cc1)CC(C)(C)CC2=O` gave Sa ugtP lethal 0, PrP UTR inh -8, Mtb hypoxia rep 6, RN4220 kill 2.0, BJeLR lethal -1, Bead autofluor 22230* and Mtb hypoxia rep growth 17.
Screening CCOC(=O)C1(Cc2cccc(Cl)c2)CCCN(C(=O)c2cn[nH]c2)C1 (configuration not stated) returned Sa ugtP lethal 0, PrP UTR inh -6, Mtb hypoxia rep -3, RN4220 kill 3.1, BJeLR lethal -4, Bead autofluor 5374 and Mtb hypoxia rep growth -7.
Screening O=c1cc(C(Cl)(Cl)Cl)oc2c1ccc1ccccc12 returned Sa ugtP lethal 16, PrP UTR inh -15, RN4220 kill 13, BJeLR lethal 4 and Bead autofluor 3784.
`CCOC(=O)c1cc(C#N)c(N2CCOCC2)nc1-c1ccccc1` gave Sa ugtP lethal 0, PrP UTR inh -17, Mtb hypoxia rep 14, RN4220 kill 6.0, BJeLR lethal 3, Bead autofluor 4650 and Mtb hypoxia rep growth 8.
For CC(=O)Nc1ccc(NC(=O)COc2ccc3c(c2)CCC3)cc1 the results were Sa ugtP lethal 5, PrP UTR inh -10, Mtb hypoxia rep 8, RN4220 kill -5.9, BJeLR lethal 0, Bead autofluor 5085 and Mtb hypoxia rep growth 12.
`COc1ccc(CCNC(=O)C(C)c2ccc([N+](=O)[O-])cc2)cc1` (configuration not stated) gave Sa ugtP lethal 2, PrP UTR inh -14, Mtb hypoxia rep 6, RN4220 kill 2.6, BJeLR lethal 0, Bead autofluor 2099 and Mtb hypoxia rep growth 1.
Screening O=C(NCCCN1CCCCCC1)C1CC(=O)N(CCc2ccccc2)C1 (configuration not stated) returned Sa ugtP lethal 5, PrP UTR inh -22, Mtb hypoxia rep 4, RN4220 kill 9.2, BJeLR lethal 3, Bead autofluor 3323 and Mtb hypoxia rep growth 6.
`COc1cccc(C2=NOC(C(=O)Nc3cccc(C(C)=O)c3)C2)c1OC` (configuration not stated) gave Sa ugtP lethal 0, PrP UTR inh -13, Mtb hypoxia rep -1, RN4220 kill 3.6, BJeLR lethal -8, Bead autofluor 11207 and Mtb hypoxia rep growth 5.

Three compounds picked at random from the list so far:
`COc1cccc(C2=NOC(C(=O)Nc3cccc(C(C)=O)c3)C2)c1OC` (configuration not stated) gave Sa ugtP lethal 0, PrP UTR inh -13, Mtb hypoxia rep -1, RN4220 kill 3.6, BJeLR lethal -8, Bead autofluor 11207 and Mtb hypoxia rep growth 5.
`CC(=O)CC(O)CC(=O)C1OC(=O)CCCCCC=CCc2ccccc21` (configuration not stated) gave Sa ugtP lethal -2&7, Mtb hypoxia rep -1&3, RN4220 kill 2.9&14 and Mtb hypoxia rep growth 11&5.
Screening CCOC(=O)c1cnc2ccc(OC)cc2c1NCc1ccccc1 returned Sa ugtP lethal -11, PrP UTR inh -1, Mtb hypoxia rep 2, RN4220 kill 15, BJeLR lethal 0, Bead autofluor 8870 and Mtb hypoxia rep growth 5.

(next part)
For COc1ccc(C(=O)N(C)C2CCCCC2)cc1S(=O)(=O)N1CCOCC1 the results were Sa ugtP lethal 4, Mtb hypoxia rep 10, RN4220 kill 6.8, Bead autofluor 5358 and Mtb hypoxia rep growth 3.
For CCOc1ccc2c(c1)C(=NN1C(=O)c3ccccc3C1=O)C(=O)N2 the results were Sa ugtP lethal 5, Mtb hypoxia rep 4, RN4220 kill 5.2 and Mtb hypoxia rep growth -5.
CCn1c(CNC(=O)c2ccco2)nnc1SCC(=O)c1ccccc1 was read as Sa ugtP lethal -3, PrP UTR inh -7, Mtb hypoxia rep -2, RN4220 kill 5.1, BJeLR lethal -8, Bead autofluor 2555 and Mtb hypoxia rep growth 4.
Cc1ccccc1S(=O)Cc1ccc(C(=O)N2CCN(C(=O)c3ccco3)CC2)o1 (configuration not stated) was read as Sa ugtP lethal 8, PrP UTR inh 2, Mtb hypoxia rep 2, RN4220 kill 1.8, BJeLR lethal -5, Bead autofluor 6329 and Mtb hypoxia rep growth 2.
COc1ccc(C(=O)Nc2ccc(S(=O)(=O)Nc3onc(C)c3C)cc2)cc1OC was read as Sa ugtP lethal 3, PrP UTR inh -15, RN4220 kill -0.7, BJeLR lethal -7 and Bead autofluor 4695.
Screening O=C(Nc1cccc2ccccc12)N1CCN(c2ncccn2)CC1 returned Sa ugtP lethal 6, PrP UTR inh -3, Mtb hypoxia rep 12, RN4220 kill 1.3, BJeLR lethal -3, Bead autofluor 6008 and Mtb hypoxia rep growth 2.
Screening C=C(C)c1ccc(C(C)(C)NC(=O)NCc2ccco2)cc1 returned Sa ugtP lethal 3, PrP UTR inh -9, RN4220 kill 9.0, BJeLR lethal 5 and Bead autofluor 2224.
`O=C(CCNC(=O)c1ccco1)Nc1ccc(OC(F)F)cc1` gave Sa ugtP lethal 9, PrP UTR inh -20, Mtb hypoxia rep 0, RN4220 kill 4.2, BJeLR lethal 2, Bead autofluor 5286 and Mtb hypoxia rep growth 2.
For COc1ccccc1C=NN=C(N)c1ccccn1 the results were Sa ugtP lethal 12, Mtb hypoxia rep 8, RN4220 kill 1.0 and Mtb hypoxia rep growth 3.
`CC(=O)c1sc(NC(=O)COc2ccc(Cl)cc2C)nc1C` gave Sa ugtP lethal 6, PrP UTR inh -19, Mtb hypoxia rep 7, RN4220 kill 6.7, BJeLR lethal 13, Bead autofluor 5956 and Mtb hypoxia rep growth 5.
CC(SCc1nc2sc3c(c2c(=O)[nH]1)CCCC3)C(=O)Nc1ccccn1 (configuration not stated) was read as Sa ugtP lethal 2, PrP UTR inh -16, Mtb hypoxia rep 6, RN4220 kill 0.3, BJeLR lethal -9, Bead autofluor 5110 and Mtb hypoxia rep growth -3.
For O=C(CSc1nnc2n1CCCN2)c1ccc(Cl)cc1 the results were Sa ugtP lethal 16, PrP UTR inh -22, Mtb hypoxia rep 14, RN4220 kill 6.4, BJeLR lethal 5, Bead autofluor 2497 and Mtb hypoxia rep growth 10.
`CCN(C(=O)Cc1ccc(NC2=NC3CS(=O)(=O)CC3S2)cc1)c1ccccc1` (configuration not stated) gave Sa ugtP lethal -14, PrP UTR inh 4, Mtb hypoxia rep -5, RN4220 kill 1.6, BJeLR lethal 13, Bead autofluor 4878 and Mtb hypoxia rep growth -1.
COc1cccc(C=NNc2nc3ccccc3[nH]2)c1O was read as Sa ugtP lethal -3, Mtb hypoxia rep -5, RN4220 kill 4.5 and Mtb hypoxia rep growth -5.
C=CCNC(NC(=O)c1ccccc1)(C(=O)OCC)C(F)(F)F (configuration not stated) was read as Sa ugtP lethal 5, PrP UTR inh -20, Mtb hypoxia rep 1, RN4220 kill 5.1, BJeLR lethal -4, Bead autofluor 15225 and Mtb hypoxia rep growth 6.
Screening Nc1nc(CSC(=S)N2CCCCC2)nc(Nc2ccccc2)n1 returned Sa ugtP lethal -16, PrP UTR inh -57, Mtb hypoxia rep 3, RN4220 kill -1.8, BJeLR lethal -2, Bead autofluor 2566 and Mtb hypoxia rep growth 12.
COc1ccc(OC)c(C(=O)NC(CC(N)=O)c2ccc(NCc3ccccn3)c([N+](=O)[O-])c2)c1 (configuration not stated) was read as Sa ugtP lethal 3, PrP UTR inh -10, Mtb hypoxia rep 23, RN4220 kill 7.2, BJeLR lethal 3, Bead autofluor 3829 and Mtb hypoxia rep growth 10.
Screening c1ccc(OCCOCCN2CCN(C(c3ccccc3)c3ccccc3)CC2)cc1 returned Sa ugtP lethal 6, PrP UTR inh -3, Mtb hypoxia rep 1, RN4220 kill -1.3, BJeLR lethal -15, Bead autofluor 7406 and Mtb hypoxia rep growth 5.
`c1ccc(-c2csc(-c3ccncc3)n2)cc1` gave Sa ugtP lethal -3, PrP UTR inh -22, Mtb hypoxia rep -3, RN4220 kill 6.2, BJeLR lethal -1, Bead autofluor 4490 and Mtb hypoxia rep growth -4.
Screening COC(=O)C1=C(c2c(C)noc2C)CC2CCC1N2C(=O)NCc1ccc2c(c1)OCO2 (configuration not stated) returned Sa ugtP lethal 6, Mtb hypoxia rep 8, RN4220 kill 2.0 and Mtb hypoxia rep growth 9.
Screening CC(C)(C)NC(=O)CN(C(=O)Cn1nnc(-c2ccc(Cl)cc2)n1)C1CCN(Cc2ccccc2)CC1 returned Sa ugtP lethal 10, PrP UTR inh -3, Mtb hypoxia rep 2, RN4220 kill -3.3, BJeLR lethal -16, Bead autofluor 4938 and Mtb hypoxia rep growth 1.
Screening O=C(c1cc2ccccc2o1)N1CCN(S(=O)(=O)c2ccc(F)c(F)c2F)CC1 returned Sa ugtP lethal -3, PrP UTR inh -6, Mtb hypoxia rep 9, RN4220 kill 0.6 and Mtb hypoxia rep growth 0.
For COc1cccc(C(=O)NNC(=O)C(=O)Nc2ccc(C)c(Cl)c2)c1 the results were Sa ugtP lethal -9, PrP UTR inh -9, Mtb hypoxia rep -5, RN4220 kill 8.6, BJeLR lethal -3, Bead autofluor 6650 and Mtb hypoxia rep growth -3.
For OCC(CO)(CO)NC(=S)Nc1cc(Cl)cc(Cl)c1 the results were Sa ugtP lethal 9, PrP UTR inh -5, Mtb hypoxia rep 13, RN4220 kill 4.6, BJeLR lethal 2, Bead autofluor 3999 and Mtb hypoxia rep growth 0.
For C/C(=N\Nc1ccc([N+](=O)[O-])cc1)c1ccc2c(c1)OCO2 the results were PrP UTR inh -62, BJeLR lethal 4 and Bead autofluor 2404.
`O=C(Nc1ccc(F)cc1)Nc1nnc(COc2ccccc2F)s1` gave Sa ugtP lethal -27, PrP UTR inh -10, Mtb hypoxia rep -21, RN4220 kill -2.8, BJeLR lethal -12, Bead autofluor 2612 and Mtb hypoxia rep growth -9.
For COc1ccc(C(O)c2nc3ccccc3s2)cc1 (configuration not stated) the results were Sa ugtP lethal -4, RN4220 kill 6.6 and BJeLR lethal 1.
CCCCNC(=O)CNC(=S)N(Cc1cc(OC)c(OC)c(OC)c1)C1CCCC1 was read as Sa ugtP lethal 4, PrP UTR inh -9, Mtb hypoxia rep 9, RN4220 kill 10, BJeLR lethal 3, Bead autofluor 9597 and Mtb hypoxia rep growth 8.
`O=C1NC(=O)/C(=C\c2ccc(Br)o2)S1` gave Sa ugtP lethal -2, PrP UTR inh -14, Mtb hypoxia rep 1, RN4220 kill 6.0, BJeLR lethal 9, Bead autofluor 3461 and Mtb hypoxia rep growth 4.
C(=N\c1nc2ccccc2n1CCN1CCCCC1)/c1ccc2c(c1)OCO2 was read as PrP UTR inh -6, BJeLR lethal 7 and Bead autofluor 3291.
COc1ccc(-c2cc(-c3ccc(OC)cc3)[nH]n2)cc1 was read as Sa ugtP lethal 53, PrP UTR inh -63, RN4220 kill 5.2, BJeLR lethal -18 and Bead autofluor 4654.
`CCOC(=O)c1cc2c(=O)n3ccccc3nc2n(CCCOC)c1=NC(=O)c1ccncc1` gave Sa ugtP lethal 4, PrP UTR inh 3, Mtb hypoxia rep 11, RN4220 kill 2.4, BJeLR lethal -5, Bead autofluor 4373 and Mtb hypoxia rep growth 2.
`O=C(NC1CCCC1)c1nc2c(nnn2Cc2cccc(Cl)c2)c(=O)[nH]1` gave Sa ugtP lethal -7, PrP UTR inh -31, Mtb hypoxia rep 2, RN4220 kill 16, BJeLR lethal 9, Bead autofluor 10500 and Mtb hypoxia rep growth 14.
For COc1ccc2[nH]c(C)c(CCN(Cc3cccs3)C(=S)Nc3ccccc3OC)c2c1 the results were Sa ugtP lethal 9, PrP UTR inh -17, Mtb hypoxia rep 0, RN4220 kill -3.4, BJeLR lethal 11, Bead autofluor 4620 and Mtb hypoxia rep growth 8.

High-throughput results (PubChem)
